# Assay outcomes (PubChem BioAssay)
# NPYLR7 agonist = agonists of mosquito NPYLR7 receptor, primary screen, cell-based, Aedes aegypti, calcium fluorescence, mosquito biting behavior | 270,000 compounds, 0.15% hits | HEK293T NPYLR7/Galpha15, GCaMP6s calcium fluorescence | Aedes aegypti neuropeptide Y-like receptor 7 (NPYLR7) | AID 1259423, 2018 | activation, % at 10 µM; in the data active = activation above about 40%;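 also: 0% = vehicle and 100% = reference agonist at the receptor; some compounds past the cut are filed as inactive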
# NPYLR7 agonist max-min = second read-out of NPYLR7 agonist, no call of its own (marks repeat the call); activation, %; measured here: Max-Min RFU normalised activation; some inactives read as strong as hits;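 span of the calcium signal over five minutes; 0% = vehicle and 100% = native peptide agonist; compound fluorescence can raise it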
# * = called active by the depositor; & = joins results of further samples. These rows are one share of the data; the hit share may differ from the screen's.
# Below each SMILES – NPYLR7 agonist max-min	NPYLR7 agonist
CCCCCCn1c(CN2CCN(C(=O)OCC)CC2)nc2c1c(=O)n(C)c(=O)n2C
→ 1	1
Cc1cc(C)nc(SCc2cc(=O)c(OC(=O)C3(c4ccc(Cl)cc4)CCCC3)co2)n1
→ -5	-23
Cc1ccc(-c2noc(CCN(Cc3ccco3)CC(O)COc3ccccc3C)n2)cc1 (stereo not drawn)
→ 4	5
O=C(CCC1CCCN(C(=O)/C=C/c2nc3ccccc3s2)C1)NC1CC1 (stereo not drawn)
→ -1	5
Cc1nc2ccc(C(=O)NCCN(C)C)cn2c1N(C)C=O
→ 20	3
CCC(C)Nc1cc(C)nc2c(-c3ccccc3Cl)cnn12 (stereo not drawn)
→ -6	-3
NC(=O)c1csc(N2CCC(CO)(Cc3ccccc3)CC2)n1
→ -6	-4
COc1ccc(CN2CCC2(C)C(=O)Nc2cccc(Br)c2C)c2ccccc12 (stereo not drawn)
→ -2	1
C=CCNC(=O)c1cn(C)cc2c(=O)n(-c3ccccc3)nc1-2
→ 4	7
CN(Cc1nc2ccccc2s1)C(=O)c1cn2c(n1)CNCC2
→ 9	11
CN1CC2(CCN(Cc3nc4ccsc4c(=O)[nH]3)CC2)CC1C(=O)O (stereo not drawn)
→ 3	6
CCn1c(C2CCCN(S(=O)(=O)C3CC3)C2)nn(CCN(C)C)c1=O (stereo not drawn)
→ -3	-1
O=C(c1ccc2ncsc2c1)N(CCN1CCOCC1)c1nc2c(F)cc(F)cc2s1
→ 0	8
O=[N+]([O-])c1ccc(C(Nc2ncccc2O)c2ccc3cccnc3c2O)cc1 (stereo not drawn)
→ -1	1
Brc1ccc(C2=NN3C(C2)c2ccccc2OC32CCCC2)cc1 (stereo not drawn)
→ -20	-12
O=C(O)c1cccnc1CN1CCc2[nH]c3ccccc3c2C1
→ 6	16
Cc1cc(CSc2ncccc2C(=O)N(C)C)no1
→ 11	10
CCC(C)c1cc(S(=O)(=O)NCc2ccc3c(c2)OCO3)ccc1OC (stereo not drawn)
→ 4	5
COc1cc2c(cc1OC)C(c1c(F)cccc1Cl)N(C(=O)C1(c3ccc(Cl)cc3)CCCC1)CC2 (stereo not drawn)
→ 6	24
CCC(C)NC(=O)Cn1cnc2ccccc2c1=O (stereo not drawn)
→ 6	18
Cc1cccc(Nc2ncnc3c2nnn3C)c1C
→ 3	10
CSc1cc(-c2csc(C(C)C)n2)ccc1NC(C)=O
→ 5	0
Cc1cccc(C(=O)NC2CCN(c3ccccc3C(=O)NCc3ccccc3F)CC2)c1
→ 11	18
COc1ccccc1-c1cc(C(=O)N2CCC(n3c(=O)[nH]c4ccccc43)CC2)nc2cc(-c3ccccc3)nn12
→ 11	-7
CSc1ccc(COc2coc(CN3CCCN(C(=O)C4CCN(c5nccc(C(F)(F)F)n5)CC4)CC3)cc2=O)cc1
→ 9	18
CN(Cc1cc(C(C)(C)C)n[nH]1)Cc1cccc2c1OCO2
→ 1	2
Cc1nc2ccccc2nc1NCC(=O)N1CCCC1
→ 0	1
CC(=O)c1cccc(OCc2cc(C(=O)N(C)Cc3cccnc3)n[nH]2)c1
→ 0	3
Cc1nc(CCNC(=O)NCc2ncc(C(C)(C)C)o2)cs1
→ -4	2
CC(C)CNC(=O)COc1ccc2c(C(C)C)cc(=O)oc2c1
→ 2	2
Cc1cccnc1CCNC(=O)CCC(=O)Nc1ccc(F)c(Cl)c1
→ 5	6
COCCCNCc1c(-c2cccc(C)c2)noc1N1CCOCC1
→ 6	3
O=S(=O)(CCO)Cc1csc(-c2ccsc2)n1
→ 2	4
COC(=O)C1=C(C)NC(C)=C(C(=O)OCCN(C)C=O)C1c1cccc([N+](=O)[O-])c1 (stereo not drawn)
→ -19	-11
Cc1ccc(S(=O)(=O)NCCc2nnc3ccc(NCCCOC(C)C)nn23)cc1
→ -2	4
CC(C)CN1CCN(c2nc3c(c(=O)[nH]c(=O)n3C)n2Cc2ccc(Cl)cc2Cl)CC1
→ 53	1
CN(CC(=O)NC1CCCCCCC1)Cc1cc(-c2ccncc2)no1
→ 10	23
Cc1oc(-c2ccccc2Cl)cc1C(=O)NCc1ccncc1
→ -7	-2
Oc1cccc(Nc2nc3ccccc3n3nnnc23)c1
→ 2	6
CCN1C(=O)N(C2Cc3ccccc3C2)C(=O)C12CCN(Cc1cc3c(cc1Cl)OCO3)CC2
→ -5	7
COC(=O)C1=C(O)/C(=C\c2ccc(N(C)C)cc2)SC1=Nc1ccc([N+](=O)[O-])cc1
→ 1	-7
Nc1nc(N)c2nc(CNc3ccc(C(=O)NC(CCC(=O)O)C(=O)O)cc3)cnc2n1 (stereo not drawn)
→ 0&-6	4&9
Cn1c(Cc2cccs2)nn(CN2CCC(c3ccc(O)cc3)CC2)c1=S
→ -1	2
O=C(NNC(=O)c1cc(Cl)ccc1Cl)c1ccoc1
→ 2	3
Cc1ccc(C(C2Sc3nc(C)nn3C2=O)N2CC(C)CC(C)C2)cc1 (stereo not drawn)
→ 0	-1
Cc1ccc(NC(=O)N(Cc2cccc(OS(C)(=O)=O)c2)C(C)C)c(C)c1
→ 13	2
CCOC(=O)c1c(NC(=O)CCl)sc(C(=O)NC)c1C
→ -5	-1
COc1ccc(CCNC(=O)c2ccccc2N2CCC(NC(=O)c3cccc(Cl)c3)CC2)cc1OC
→ 12	-1
Cn1c(=O)c2ccccc2n2c(=S)[nH]nc12
→ 7	0
CCc1ccc(-c2cc3c(=O)n(Cc4ccc(C)cc4C)ccn3n2)cc1
→ -4	4
COCCNC(=O)C(NC(=O)CC(C)C)C1CCN(S(=O)(=O)c2ccc(C)cc2)CC1 (stereo not drawn)
→ 5	-3
CC(c1cccs1)N(C)c1ncnc2c1cnn2C (stereo not drawn)
→ 2	5
CC12CCC(=O)C=C1CCN(C(=O)OCc1ccccc1)C2 (stereo not drawn)
→ 8	3
CCOc1ccc(N2CC(C)Cn3c2nc2c3c(=O)n(CCOC)c(=O)n2C)cc1 (stereo not drawn)
→ 0	5
COc1cccc(CN(CC2CC(c3ccccc3Cl)=NO2)C(=O)C2CCCC2)c1 (stereo not drawn)
→ 29	20
CC(C)(C)Cc1nnc(-c2cnc3onc(C4CCCC4)c3c2)o1
→ 6	9
Cc1cccc(-n2c(CNC(=O)c3cccs3)nnc2SCC(=O)Nc2nccs2)c1
→ 11	6
COc1cccc(-c2cc(C(=O)N3CCC(Cc4ccccc4)CC3)nc3cc(C(C)(C)C)nn23)c1
→ 13	12
CC(=O)C1=C(c2cccc([N+](=O)[O-])c2)N(C(C)=O)n2cnnc2S1
→ 6	11
CCOC(=O)c1[nH]c(C)c(C(=O)OC)c1C
→ 5	-2

# Next section
# Below each SMILES – NPYLR7 agonist max-min	NPYLR7 agonist
Cc1cccc(-n2c(-c3ccc(Cl)cc3)cc(C(=O)N3CCN(C(=O)Cc4ccccc4)CC3)c2C)c1
→ 12	0
O=C(OCc1cc(-c2ccccc2)on1)c1ccc(F)cc1
→ -1	-1
CC(C)Cc1nc(C(N)=O)c2[nH]c(=O)n(-c3ccc4c(c3)OCO4)c2n1
→ 6	20
Cc1nc2nc3ccn(-c4ccccn4)c(=O)c3c(-c3ccccc3)n2n1
→ -5	-4
Cc1nn(C(=O)COc2ccc(F)cc2)c(C)c1Sc1ccccc1
→ 2	2
COC(=O)C1=C(NC(=O)c2ccc(C(=O)c3ccccc3)cc2)CCS1
→ 1	0
O=C(Nc1ccc(-n2nc(OCc3ccc(F)cc3)nc2-c2cccc(C(F)(F)F)c2)cc1)c1cccc([N+](=O)[O-])c1
→ 17	9
COCCOC(=NCCN(C)C)NC(=O)c1ccc(OC)cc1
→ 12	9
CCCC(C)NC(=O)COC(=O)C1C(C(=O)OCC)=C(C)NC(C)=C1C(=O)OCC (stereo not drawn)
→ -6	-3
CN1C(=O)NC(c2ccccc2F)C2=C1CN(Cc1ccc3c(c1)OCO3)C2=O (stereo not drawn)
→ 12	-2
Cc1cc(C)n(-c2ccc(C(=O)N(Cc3nccs3)C3CC3)cc2)n1
→ 6	18
CCN(C)C(=O)Nc1cccc(CS(=O)C2CCCCC2)c1 (stereo not drawn)
→ 5&8	8&8
Cc1ncsc1CCCNC1CCC2(CCNCC2)CC1
→ 3	6
COc1ccccc1NC(=O)CSc1nc(=O)n(CCCO)c2c1CCC2
→ -14	-10
CCC1CN(C(=O)CCC2=NNC(=O)CC2)CCC(=O)N1Cc1ccccc1 (stereo not drawn)
→ 3	6
COc1ccc(C(=O)Nc2ccc3oc(-c4cccc(I)c4)nc3c2)cc1[N+](=O)[O-]
→ -3	0
Cc1ccc(Cl)c(NC(=O)CN2CCCC2c2ccc3c(c2)OCCCO3)c1Cl (stereo not drawn)
→ 6	6
Cc1ccc(NC(=O)CCN2C(=O)NC3(CCCC3)C2=O)cc1Cl
→ 10	4
Cn1c(=O)n(CC(=O)N2CCN(S(=O)(=O)c3ccc(F)cc3F)CC2)c2ccccc21
→ 25	-1
Cc1cccc(S(=O)(=O)NC(=O)C2(C)CCN2C(=O)Cc2ccc(C(C)(C)C)cc2)c1 (stereo not drawn)
→ 7	10
O=C(NCCc1ccccc1F)N1CCN(S(=O)(=O)c2ccc(Cl)c(Cl)c2)CC1
→ -2	-1
CCn1ccnc1Cn1ccnc1-c1ccc(O)c(CN(C)C)c1
→ -4	0
Cc1ccc(C)c(NS(C)(=O)=O)c1
→ 5	6
O=C(NCCc1ccccn1)C(C1CCCC1)N1CCN(C(=O)c2ccc3c(c2)OCO3)CC1 (stereo not drawn)
→ 8	2
COc1ccc(OC)c(S(=O)(=O)Nc2ccccc2OC(F)F)c1
→ 7	12
N#CCSc1n[nH]c(COc2ccc(Cl)cc2)n1
→ 5	11
CC1CC(=O)c2cnc(N3CCN(c4ccccc4)CC3)nc2C1 (stereo not drawn)
→ 16	23
COCc1nnc2sc(/C=C/c3ccccc3)nn12
→ -1	-1
COc1ccc(-c2ccc(=O)n(CCCNS(=O)(=O)/C=C/c3ccccc3)n2)cc1
→ -2	0
CC(=O)NCCc1cc2cc(C)c(C)cc2[nH]c1=O
→ 34	1

# Shown tab-delimited: part of the list above.
structure	NPYLR7 agonist max-min	NPYLR7 agonist
Cc1ccc(C(C2Sc3nc(C)nn3C2=O)N2CC(C)CC(C)C2)cc1 (stereo not drawn)	0	-1
Cc1ccc(NC(=O)N(Cc2cccc(OS(C)(=O)=O)c2)C(C)C)c(C)c1	13	2
CCOC(=O)c1c(NC(=O)CCl)sc(C(=O)NC)c1C	-5	-1
COc1ccc(CCNC(=O)c2ccccc2N2CCC(NC(=O)c3cccc(Cl)c3)CC2)cc1OC	12	-1

# (further entries)
# Below each SMILES – NPYLR7 agonist max-min	NPYLR7 agonist
CCNc1nnc(SCC(=O)c2cc(C)n(C3CC3)c2C)s1
→ 3	5
CC(C)c1ccc(C2(C)NC(=O)N(CC(=O)Nc3ccc(S(=O)(=O)N(C)C)cc3)C2=O)cc1 (stereo not drawn)
→ 8	2
Cc1cc(=O)n2c(n1)SCC2CC(=O)NCc1ccc(F)cc1 (stereo not drawn)
→ -3	-3
Fc1ccc(Cc2nc(CSc3ccc(Cl)cc3Cl)cs2)c(Cl)c1
→ 0	5
CCN(CC1CCCO1)C(=O)Nc1ccc(OC)cc1Cl (stereo not drawn)
→ -5	-5
CCOC(=O)CCC(=O)NCC1CN(c2ccc(C)cc2)C(=O)O1 (stereo not drawn)
→ 2	2
CC(C)OCCS(=O)(=O)c1cccc(C(F)(F)F)c1
→ 1	4
CN(Cc1ccsc1)c1cc(N2CCOCC2)nc(N)n1
→ 6	3
CC(=O)Nc1ccccc1N1C(=O)c2ccc(-c3nc4ccccc4c(=O)o3)cc2C1=O
→ -11	-6
Cc1cc(C)nc(SCc2c(C(=O)N3CCc4ccccc43)nnn2-c2ccccc2)n1
→ -7	-1
N#CCOc1ccc(C2=NO[C@@H]3[C@@H]4C[C@@H]([C@H]5C(=O)N(Cc6cccnc6)C(=O)[C@@H]45)[C@H]23)cc1
→ 24	3
CCOc1ccccc1C(=O)N1CCN(c2ncnc3c2nnn3C)CC1
→ 18	1
O=C(CCN1CCN(Cc2ccc(Cl)s2)CC1)Nc1ccc(Cl)cc1F
→ 16	-1
O=C(O)C1(c2ccc(F)cc2F)CCOCC1
→ 6	9
Cc1cccn2c(CNC(=O)CCN3CCCO3)cnc12
→ -2	-1
COc1ccccc1OCC(=O)OCc1cc(-c2cc3ccccc3o2)on1
→ -7	-5
CN(Cc1ccc(Br)s1)C(=O)c1cccc2cccnc12
→ 3	7
Cc1nn(CC(C)C)c(C)c1CC(=O)N1CCC(NS(=O)(=O)c2ccccc2)CC1
→ -1	9
COc1ccccc1/C=C/CN1CC[C@@H](c2sccc2C)[C@H](O)C1
→ 4	7
O=C(c1n[nH]c2c1CCCC2)N1CCCC(OCc2ccccn2)C1 (stereo not drawn)
→ 1	-1
Cc1cccc(C(=O)N2CCC(n3c(=O)[nH]c4ccccc43)CC2)c1
→ -11	-8
O=C(CSc1nc2c(c(=O)n1CCc1ccccc1)SCC2)N1CCc2ccccc21
→ -4	3
Cc1noc(C)c1S(=O)(=O)Nc1ccc(S(=O)(=O)N2CC(C)OC(C)C2)cc1 (stereo not drawn)
→ 5	8
COc1ccc(C)cc1C(=O)c1sc2nc(N)c(C#N)cc2c1N
→ 2	4
N#CCCN(Cc1cccnc1)C(=O)Nc1ccc(Cl)cc1
→ -4	-5
NC(=O)c1ccc(NC(=O)Cn2nc(-c3cccs3)c3sc(N4CCCCC4)nc3c2=O)cc1
→ -6	-3

# Looked up above:
# Reading of COc1ccc(C)cc1C(=O)c1sc2nc(N)c(C#N)cc2c1N in NPYLR7 agonist max-min: 2
# Reading of CCOc1ccccc1C(=O)N1CCN(c2ncnc3c2nnn3C)CC1 in NPYLR7 agonist: 1
